Assay outcomes from PubChem BioAssay.
STK33 kinase inh: inhibitors of human STK33 kinase. purified STK33, MBP phosphorylation, ADP-Glo luminescence. inhibition, % at 10 µM. 320,000 compounds, 0.073% hits;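 active = inhibition at or above 25%, using the most active replicate where run in duplicate; inactive = inhibition below 25%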
Target sequence (Q9BYT3 whole entry, looked up): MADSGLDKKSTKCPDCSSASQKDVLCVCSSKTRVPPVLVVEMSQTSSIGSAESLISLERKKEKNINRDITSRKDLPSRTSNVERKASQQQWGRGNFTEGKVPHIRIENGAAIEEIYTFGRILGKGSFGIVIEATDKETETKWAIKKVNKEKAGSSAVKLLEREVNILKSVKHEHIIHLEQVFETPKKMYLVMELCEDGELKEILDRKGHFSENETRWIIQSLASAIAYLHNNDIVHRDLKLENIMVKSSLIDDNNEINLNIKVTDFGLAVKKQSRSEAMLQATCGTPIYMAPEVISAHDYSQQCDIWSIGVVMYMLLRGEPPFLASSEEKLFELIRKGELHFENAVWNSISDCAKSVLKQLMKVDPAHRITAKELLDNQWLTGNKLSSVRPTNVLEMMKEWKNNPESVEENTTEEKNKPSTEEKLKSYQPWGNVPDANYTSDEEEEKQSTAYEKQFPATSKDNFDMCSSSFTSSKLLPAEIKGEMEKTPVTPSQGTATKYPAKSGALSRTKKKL
Numbers without * were called inactive.

STK33 kinase inh	SMILES
-1.8	COc1cccc(C(=O)O/N=C(\N)c2ccc([N+](=O)[O-])cc2)c1OC
-1.5	Cc1ccnc(NC(=O)CCC2COc3ccccc3O2)c1 (stereo not given)
-0.2	CC1CCN(C(=O)c2ccc(CSc3ccc(Cl)cc3)cc2)CC1
-0.1	Cc1ccc(NC(=O)Cn2nc(C)c(S(=O)(=O)N(C)C)c2C)cc1
-3.2	CCCNC(=S)N1CCC(C(=O)c2ccc(F)cc2)CC1
-1.5	Cc1cc(/C=C2/SC(=O)N(CC(=O)OC(C)C)C2=O)c(C)n1C
-0.7	Cc1nc(NCc2ccccn2)c2ccccc2n1
-1.7	O=C(CN1CCCC1)Nc1ccc(OCc2ccccc2)cc1

STK33 kinase inh	SMILES
3.7	CNC(=S)N(C)c1ccccc1
-0.1	Cc1cc(C)cc(NS(=O)(=O)c2ccc3oc(=O)ccc3c2)c1
-0.1	CN(c1cccc(NC(=O)CCSc2ccccc2)c1)S(C)(=O)=O
-1.3	Cc1cnc([N+](=O)[O-])n1CCOC(=O)NC(=O)c1ccc(C(F)(F)F)cc1
-0.6	CS(=O)(=O)N(CC(=O)N/N=C/c1ccccn1)c1ccc(Oc2ccccc2)cc1
-1.8	CCOc1ccc(-n2cc(-c3ccc(OC)c(OC)c3)[nH]c2=S)cc1
0.1	O=c1c2c3c(sc2nc2sc(C4CC4)nn12)CCCC3
0.1	CCCC1(CCC)NC(=O)N(CC(=O)Nc2ccc3c(c2)OCCO3)C1=O

STK33 kinase inh	SMILES
-0.6	O=C(NCCOc1ccccc1)C1CCC(=O)N(C2CCCCCC2)C1 (stereo not given)
0.7	COc1ccc(OCCCSc2ncccn2)cc1
-1.1	O=C(NCCCN1CCOCC1)c1cc(-c2ccc3c(c2)OCO3)nc2ccccc12
-0.4	CCOC(=O)NC(=S)Nc1ccc(OC)cc1
4.2	CC(C)c1ccc(Nc2nnc(SCC(=O)c3nnc(-c4ccccc4)o3)s2)cc1
-0.9	Cc1cccc(NC(=O)/C(C#N)=C/c2cn(CC(=O)NCc3ccco3)c3ccccc23)c1C
-4.7	CC(C)NC(=O)CN1CCN(Cc2nc(-c3cccs3)no2)CC1
0.3	COc1ccc(C(=O)NCc2cccc(Cl)c2)cc1S(=O)(=O)N1CCOCC1

STK33 kinase inh	SMILES
-0.1	S=C(NCCc1ccccc1)Nc1nccs1
0.7	Cc1csc(NC(=O)c2ccc(S(=O)(=O)N(C)c3ccccc3)cc2)n1
-3.1	CCCCN(C(=O)CCC(=O)Nc1cc(C)on1)C(C(=O)NC1CCCC1)c1cccc(OC)c1 (stereo not given)
-0.6	COc1cc2c(cc1OC)CN(C(=O)CCOc1ccccc1C)CC2
0.3	Cc1ccc(C)c(OC(C)C(=O)Nc2ccc(S(=O)(=O)Nc3nccs3)cc2)c1 (stereo not given)
-0.8	C=CCNC(=S)N/N=C(\C)c1ccc(OC)cc1
-0.2	O=S(=O)(Cc1ccccc1Cl)N1CCCCC1
-1.3	CCOC(=O)c1c(C2CC2)csc1NC(=O)COC(=O)c1cc(OC)c(OC)cc1[N+](=O)[O-]

STK33 kinase inh	SMILES
0.2	COCCN1C(=O)C(=O)/C(=C(/O)c2ccc(S(=O)(=O)N3CCOCC3)cc2)C1c1cccc(OC)c1 (stereo not given)
1.7	CC(=O)Nc1ccc(NC(=O)C(=O)c2cn(CC(=O)N3CCCCC3)c3ccccc23)cc1
-0.8	COc1ccc(Cc2nnc(NC(=O)c3cccs3)s2)cc1
0.2	CC(C(=O)Nc1ccc(Cl)cc1)N(C)Cc1cccs1 (stereo not given)
-0.9	CC(=O)C1=C(c2ccccc2)NC(=S)NC1c1cc(Cl)c(OC(C)C)c(Cl)c1 (stereo not given)
-2.2	CC(=O)NC(Cc1cccc(F)c1)C(=O)NC1CCN(C(=O)c2ccc(C)cc2)CC1 (stereo not given)
-0.1	O=C(Oc1ccc2c(=O)c(Cl)coc2c1)c1ccncc1
-1.8	COc1ccc(CNC(=S)N/N=C(/C)c2ccccc2)cc1

STK33 kinase inh	SMILES
2.8	CCN(CC)CCn1c2c(c(SCC(=O)Nc3nc4ccccc4s3)nc1=O)CCC2
5.4	CCCCNC(=O)C(Cc1ccccc1)NS(=O)(=O)c1ccc2c(c1)c(=O)n(C)c(=O)n2C (stereo not given)
-0.4	CCN1CCN(C(C)C(=O)Nc2c(C)n(C)n(-c3ccccc3)c2=O)CC1 (stereo not given)
-0.6	COc1cc(CN(C)Cc2cc(=O)n3ccsc3n2)ccc1OC(F)F
-0.8	Cn1c(N)c(C(=O)COC(=O)c2cc(-c3ccccc3)nc3ccccc23)c(=O)n(C)c1=O
0.6	CCOC(=O)c1csc(NC(=O)c2ccc(OCC)cc2)n1
0.4	Cc1cccc(-c2n[nH]c(=S)n2Cc2ccccc2)c1
-1.4	COc1cc(OC)c(OC)cc1/C=N/n1c(-c2n[nH]c3c2CCC3)n[nH]c1=S

STK33 kinase inh	SMILES
-2.2	CSc1ccc(C(=O)C2CCCN(C(=O)c3ccc(C)nc3)C2)cc1 (stereo not given)
0.0	CC(CN(C)Cc1ccccc1)OC(=O)c1ccc2c(c1)OCCO2 (stereo not given)
-2.9	CCC(Cc1ccccc1)NC(=O)C1CCN(S(=O)(=O)c2c(C)noc2C)CC1 (stereo not given)
-1.1	CC1CN(Cc2ccccc2)c2nc3c(c(=O)n(C)c(=O)n3C)n2C1 (stereo not given)
-0.2	NCCCC[C@H]1CNC(=S)N1CCc1cccc(F)c1
0.1	O=C(CCC(=O)OCc1ccc(Br)cc1)Nc1ccccc1
-0.4	COc1ccc(C)c2sc(NC(=O)c3cccc(N4C(=O)CCC4=O)c3)nc12
-0.1	COc1ccc(NC(=O)c2cc(S(=O)(=O)N3CCOCC3)cn2C)c(OC)c1

STK33 kinase inh	SMILES
-2.7	O=C(CSc1nnc(-c2cccs2)n1Cc1ccco1)c1ccc2c(c1)OCO2
-1.0	COc1cccc(OCCCCCN2CCOCC2)c1
-0.6	COc1c(Br)cc2c(C)c(C(=O)N3CCOCC3)oc2c1Br
0.0	Cc1cc(C)cc(Nc2c3c(nc4ncnn24)CCC3)c1
-1.6	O=S(=O)(Nc1cccc(C(F)(F)F)c1)c1cnc[nH]1
1.6	COC(=O)c1ccc(N2NC(=O)/C(=C/c3cc(OC)c(O)c(OC)c3)C2=O)cc1
5.3	NS(=O)(=O)c1cccc(NC(=O)CSc2nc3ccccc3[nH]2)c1
1.5	CC1Cc2ccccc2N1Cc1nc2cc(Cl)ccc2c(=O)[nH]1 (stereo not given)

STK33 kinase inh	SMILES
-1.6	Cc1ccc(NC(=O)COC(=O)CCC(=O)c2cccs2)c(C)c1
-1.2	COc1ccc(CNC(=O)CN(C)S(=O)(=O)c2ccc3c(c2)c(=O)n(C)c(=O)n3C)cc1
-1.0	Cc1ccc(NC(=O)N2CCN(C(=O)C3CCCO3)CC2)cc1 (stereo not given)
-1.7	O=C(Nc1cccc([N+](=O)[O-])c1)c1ccc(N2CCCC2=O)cc1
1.0	COc1cc(NC(=O)C2=C(N3CCOCC3)/C(=C\c3ccc(Cl)cc3Cl)CC2)cc(OC)c1OC
-0.5	N#C/C(=C\c1cn(-c2ccccc2)nc1-c1ccccc1)S(=O)(=O)c1ccccc1
-0.3	COc1ccccc1N1C(=O)c2ccc(C(=O)Nc3ccc(F)cc3)cc2C1=O
0.3	COc1cccc(CNC(=O)CN(C)S(=O)(=O)c2cnc[nH]2)c1

STK33 kinase inh	SMILES
-1.8	C=CCNC(=O)c1cc2c(=O)n3ccccc3nc2s1
-3.0	O=c1cc(CSc2nnc(Nc3ccccc3F)s2)nc2sccn12
0.0	CCC(=O)N1CCc2cc(S(=O)(=O)NCCC(=O)NCc3ccc(F)cc3)ccc21
0.7	COc1ccc(NC(=O)CC(C)C)c(OC)c1
1.1	Nc1ncnc2c1ncn2CCNCCc1ccccc1
-0.4	CCC(=O)N1c2ccc(S(=O)(=O)CCC(=O)NCc3ccc4c(c3)OCO4)cc2CC1C (stereo not given)
-0.8	O=C(NCC1CCCO1)c1ccc(COc2ccc(F)cc2)o1 (stereo not given)
-0.2	O=C(Nc1ccc2c(c1)OCO2)c1sc2cc(Cl)ccc2c1Cl

STK33 kinase inh	SMILES
-1.1	CC1CC(C)CN(S(=O)(=O)N2CCC(C(=O)NCCC3=CCCCC3)CC2)C1 (stereo not given)
0.1	CN(Cc1cccc2ncccc12)C(=O)CC1C(=O)NCCN1Cc1ccc(F)cc1 (stereo not given)
-1.9	COCCNC(=O)C(c1ccccc1F)N(C(=O)C(=O)NC1CCCC1)C1CCCCC1 (stereo not given)
-0.4	Cc1noc(C)c1S(=O)(=O)Nc1ccc(C(C)C)cc1
-0.1	O=C(c1ccccc1Cl)N1CCN(S(=O)(=O)c2cccs2)CC1
-0.7	CCCc1nc(SCC(=O)NC2CC2)c2c(C)c(C)sc2n1
-1.2	O=S(=O)(c1ccc(F)cc1)N1CCN(Cc2nnc(-c3ccccc3)o2)CC1
0.0	CCc1nn(C(C)C(=O)NCc2cccc(OC)c2)c(=O)c2cc3occc3n12 (stereo not given)

STK33 kinase inh	SMILES
-0.4	C=CCn1c(COc2ccc(F)cc2)nnc1SCC(=O)NC1CCS(=O)(=O)C1 (stereo not given)
-0.3	Cc1c(C(=O)N2CCC3(CC2)CC(=O)c2ccccc2O3)cccc1[N+](=O)[O-]
-0.6	COc1ccc(CC(=O)n2c(CC#N)nc3ccccc32)cc1OC
0.1	COC(=O)/C(=C/c1ccco1)NC(=O)c1ccco1
-0.6	COc1ccc(NC(=O)CSc2nc3ccccc3c(=O)n2CCCN2CCCCC2)c(OC)c1
-1.1	COc1cccc(C2CC(c3ccccc3C)n3nc(N)nc3N2)c1 (stereo not given)
-0.5	CC(C)Sc1nc2ccccc2[nH]1
0.1	CC(C)N(C(=O)[C@H]1CC(CC(=O)NC(C)(C)C)C(=O)N2CCc3c([nH]c4ccccc34)[C@]12C)C(C)C (stereo not given in full)

STK33 kinase inh	SMILES
-0.1	COc1cccc2cc(C(=O)c3ccccc3)oc12
-2.8	CN(C(=O)C1CCOC1)c1nnc(-c2cccnc2)s1 (stereo not given)
-0.4	COc1cc(/C=C/C(=O)OCC(=O)NCCCc2ccccc2)cc(OC)c1OC
-0.9	COc1ccc(S(=O)(=O)N2CCCCC2)cc1NC(=O)COc1ccccc1
-0.2	CCOC(=O)C1CCN(Cc2cc(Cl)c3ccccc3c2O)CC1
0.3	O=C(CN(Cc1ccc(Cl)cc1)C(=O)CNS(=O)(=O)c1ccccc1)NCC1CCCO1 (stereo not given)
0.8	CC(C)Oc1ccc(S(=O)(=O)N2CCOCC2)cc1NC(=O)Cc1cccs1
-0.6	O=C(C1CC2CCC1C2)N1CCN(Cc2ccc3c(c2)OCO3)CC1 (stereo not given)

STK33 kinase inh	SMILES
1.5	Fc1ccc(-c2ccc(-c3nn4c(-c5ccco5)nnc4s3)o2)cc1
-2.8	Clc1ccc(C2=CSC3=Nc4cccc5cccc(c45)N23)cc1
-1.0	COc1ccc(C(=O)NC2CCSc3ccccc32)cc1 (stereo not given)
-2.3	Cc1ccc(NC(=O)CSc2nc(-c3ccco3)nc3cc(=O)[nH]n23)c(Cl)c1
-2.6	O=C(Nc1ccc(Cl)cc1)Nc1nnc(CSCc2ccccc2Cl)s1
0.7	Cc1csc(N(C(=O)c2cccc(S(=O)(=O)N3CCCC3)c2)c2ccccc2)n1
0.0	COc1ccc(-n2c(SCC(=O)/C(C#N)=C(\C)N)nc3ccccc3c2=O)cc1OC
-0.6	CC(/C=N/NC(=O)Cc1cccn1C)=C\c1ccco1

STK33 kinase inh	SMILES
0.1	O=C(NCCNc1cc(Cl)ccc1[N+](=O)[O-])c1ccco1
1.4	Cc1ccc(CSCC(=O)NCCCN2CCOCC2)cc1
-1.0	CCOc1ccc(Br)cc1S(=O)(=O)Nc1ncn[nH]1
-0.5	c1ccc(N2CCN(c3nnnn3-c3ccccc3)CC2)cc1
-0.7	O=C(CSc1nncs1)NC(=O)NCc1ccccc1
-2.3	Cn1c(=O)c(-c2ccccc2)nn2c3ccccc3nc12
-0.7	CCN1C(=O)N(S(=O)(=O)C(F)(F)F)[C@@H](c2ccccc2)C(C(=O)OC)=C1C
-0.2	Cc1ccc(OCC(=O)N2CCCCC2C)c([N+](=O)[O-])n1 (stereo not given)

STK33 kinase inh	SMILES
0.7	O=C(NNC(=O)C1CCCO1)c1ccc(Br)cc1 (stereo not given)
-1.4	CC(C)C(=O)N1CCN(c2ccccc2NC(=O)COc2ccccc2)CC1
-1.4	Cc1ccccc1NC(=O)c1ccc2c(O)c(S(=O)(=O)c3ccccc3)c(=O)[nH]c2c1
0.3	CC[C@H](C)[C@H](NC(=O)OCc1ccccc1)C(=O)OCC(=O)Nc1ccc(N2CCOCC2)cc1
0.4	N#Cc1cccc(NC(=O)CCc2ccc(S(=O)(=O)N3CCOCC3)cc2)c1
-0.9	CC1=CC2=NC(=O)/C(=C\c3ccc(-c4cccc(Cl)c4)o3)C(=N)N2O1

Structures listed so far that have fluorine, in the order listed:
STK33 kinase inh	SMILES
-3.2	CCCNC(=S)N1CCC(C(=O)c2ccc(F)cc2)CC1
-1.3	Cc1cnc([N+](=O)[O-])n1CCOC(=O)NC(=O)c1ccc(C(F)(F)F)cc1
-2.2	CC(=O)NC(Cc1cccc(F)c1)C(=O)NC1CCN(C(=O)c2ccc(C)cc2)CC1 (stereo not given)
-0.6	COc1cc(CN(C)Cc2cc(=O)n3ccsc3n2)ccc1OC(F)F
-0.2	NCCCC[C@H]1CNC(=S)N1CCc1cccc(F)c1
-1.6	O=S(=O)(Nc1cccc(C(F)(F)F)c1)c1cnc[nH]1
-0.3	COc1ccccc1N1C(=O)c2ccc(C(=O)Nc3ccc(F)cc3)cc2C1=O
-3.0	O=c1cc(CSc2nnc(Nc3ccccc3F)s2)nc2sccn12
0.0	CCC(=O)N1CCc2cc(S(=O)(=O)NCCC(=O)NCc3ccc(F)cc3)ccc21
-0.8	O=C(NCC1CCCO1)c1ccc(COc2ccc(F)cc2)o1 (stereo not given)
0.1	CN(Cc1cccc2ncccc12)C(=O)CC1C(=O)NCCN1Cc1ccc(F)cc1 (stereo not given)
-1.9	COCCNC(=O)C(c1ccccc1F)N(C(=O)C(=O)NC1CCCC1)C1CCCCC1 (stereo not given)
-1.2	O=S(=O)(c1ccc(F)cc1)N1CCN(Cc2nnc(-c3ccccc3)o2)CC1
-0.4	C=CCn1c(COc2ccc(F)cc2)nnc1SCC(=O)NC1CCS(=O)(=O)C1 (stereo not given)
1.5	Fc1ccc(-c2ccc(-c3nn4c(-c5ccco5)nnc4s3)o2)cc1
-0.7	CCN1C(=O)N(S(=O)(=O)C(F)(F)F)[C@@H](c2ccccc2)C(C(=O)OC)=C1C

An excerpt, and most or all hits are left out here.
